Beta2AR agonist: agonists of human beta-2 adrenergic receptor inducing internalization. Am2.2-beta2AR cells, FAP receptor internalization, flow cytometry; reference of the scale not given here. response, % (concentration not given with the values). AID 504454. hit rate 0.43% among 340,000. P07550;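 active = response above a set limit, near 3 SD of response in nonfluorescent compounds, cut at about 42% in these data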;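 note: stock transfer was 100 nL into about 11 µL; a reference agonist was the positive control; negative values mostly stem from fluorescent compounds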
Target sequence (P07550 whole entry, looked up): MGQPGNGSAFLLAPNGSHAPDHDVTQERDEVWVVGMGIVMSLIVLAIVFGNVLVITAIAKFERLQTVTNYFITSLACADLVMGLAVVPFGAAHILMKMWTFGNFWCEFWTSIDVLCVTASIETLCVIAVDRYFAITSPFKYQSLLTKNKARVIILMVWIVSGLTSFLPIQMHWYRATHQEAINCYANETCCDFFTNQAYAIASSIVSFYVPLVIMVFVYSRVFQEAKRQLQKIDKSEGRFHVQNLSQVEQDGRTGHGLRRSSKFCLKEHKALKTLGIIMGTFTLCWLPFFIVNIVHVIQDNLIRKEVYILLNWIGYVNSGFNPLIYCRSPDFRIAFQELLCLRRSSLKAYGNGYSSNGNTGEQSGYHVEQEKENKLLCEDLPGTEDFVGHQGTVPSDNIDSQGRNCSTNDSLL
Calb FLC: affects C. albicans growth with fluconazole; hit rate 0.57% among 300,000; C. albicans CaCi-2 (fluconazole-resistant clinical isolate) + fluconazole, Alamar Blue growth, 48 h; growth inhibition, % (no concentration beside the values);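 active = most replicates above 75%; inconclusive = exactly half above 75%; inactive = most below 75%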;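 note: all wells also contain fluconazole at 8 µg/ml as a sub-toxic cotreatment; 0% = median of DMSO wells and 100% = median of geldanamycin control wells; wells of about 8 µL received 7.5 nL stock; the first replicate is given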
Vif A3G: HIV-1 Vif–A3G interaction blockers – biochemical, TR-FRET, GST-Vif 1-94, biotin-A3G peptide, dose response retest, primary screen (AID 1117319) | TR-FRET GST-Vif / biotin-A3G peptide binding; higher % means a stronger effect; test concentration not given here; strong numbers were not always called active | inhibition, %, or IC50 in µM where a hit was titrated | hit rate 0.57% among 260,000;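 active = above the screen mean plus three standard deviations and confirmed in dose response; inconclusive = results disagree or hit not tested in dose response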;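 note: Vif residues 1-94 fused to GST binding biotinylated APOBEC3G peptide 110-148; 0% = full assay without inhibitor and 100% = GST in place of GST-Vif; retest series ran down from 100 µM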
RanGTP-Impb inh: disruptors of Ran-importin-beta complex formation – biochemical, FRET, CFP-Ran, YFP-importin-beta, homogeneous, primary screen; cell-free CFP-Ran/YFP-importin-beta FRET ratio; inhibition, % (test concentration not listed); hit rate 1.1% among 300,000; AID 2216;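 active = most replicates above 15%; inconclusive = exactly half above 15%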;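 note: 0% = DMSO wells and 100% = Ran loaded with GDP instead of GTP; wells of about 40 µL received 100 nL stock; the first replicate is given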
ALR inh: inhibitors of human sulfhydryl oxidase ALR; hit rate 3.8% among 290,000; purified ALR, DTT oxidation, H2O2 HRP-luminol luminescence; P55789; inhibition, % (no concentration beside the values);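 active = mean and each replicate at 75% or more; inconclusive = only one of the two met; inactive = neither met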;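 note: stock transfer was 7.5 nL into about 7.5 µL; 0% = neutral wells and 100% = wells with inactivated enzyme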
Target sequence (P55789 whole entry, looked up): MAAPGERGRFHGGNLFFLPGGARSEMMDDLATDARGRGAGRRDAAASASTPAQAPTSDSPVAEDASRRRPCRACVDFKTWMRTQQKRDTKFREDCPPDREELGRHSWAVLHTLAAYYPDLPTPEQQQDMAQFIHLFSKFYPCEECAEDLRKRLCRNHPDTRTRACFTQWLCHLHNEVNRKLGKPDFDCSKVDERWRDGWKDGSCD
HNF4A DNA FP: change in binding of human HNF4 alpha to DNA | activity change, % at 10 µM | hit rate 0.3% among 360,000 | HNF4a-FITC DNA binding, fluorescence polarization, 1 h | AID 1224865; in the data active = activity change above about 30%, passing the limit was not always enough;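 note: controls were the assay level and a saturating level of protein; the project sought stronger binding though the title names inhibitors; some compounds called inactive have numbers as strong as hits; positive values seem to mean higher polarization but the record does not say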
LANA-H2A inh: blocks KSHV LANA binding to histone H2A/H2B | Q9QR71 | hit rate 0.6% among 320,000 | cell-free LANA-H2A/H2B peptide, fluorescence polarization | inhibition, % (concentration not given with the values); in the data active = inhibition mostly above about 10%, no sharp cut-off; inactive = mostly below about 6.7%;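 note: stock transfer was 7.5 nL into about 10 µL; 0% = median of vehicle wells and 100% = median of positive control wells; one replicate is shown; the record names a cut of 25% in any replicate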
An asterisk follows results filed as active; ? = inconclusive; · = not tested or not shown; & = joins results of further samples.

Order of results: RanGTP-Impb inh	Calb FLC	HNF4A DNA FP	ALR inh	Vif A3G	LANA-H2A inh	Beta2AR agonist
> Cc1ccc2nc(NC(=O)c3ccc(Cl)s3)sc2c1
  -2.2	-2	-0.4	72	-19%	2.6	6
> COc1cccc(OC)c1/C=C/C(=O)NC1CCCCC1
  ?	0	0.3	0	·	-1.5	6
> CN(C)CCNC(=O)C(c1ccccc1)c1ccccc1
  -4.9	-12	1.8	-5	-4%	2.0	-7
> NS(=O)(=O)c1ccc(NC(=O)c2cc(Cl)ccc2Cl)cc1
  -0.4	0	1.7	1	2%	-0.8	-1
> Cc1nn(-c2ccccc2)c(C)c1C(=O)NCc1ccc(S(N)(=O)=O)cc1
  2.7	4	3.4	·	·	-2.4	3
> COc1cc(OC)cc(C(=O)Nc2ccc(S(=O)(=O)Nc3ncccn3)cc2)c1
  0.4	-3	7.7	-23	-2%	-3.1	3
> O=C(COc1ccccc1Cl)Nc1nnc(S(=O)(=O)N2CCCC2)s1
  3.1	-3	-1.3	·	·	0.7	10
> COc1ccc(CCNC(=O)CNS(=O)(=O)c2ccc(Br)cc2)cc1
  2.8	36	-0.1	-7	·	-1.3	-5
> Cc1cc(C)n(-c2ccc(C(=O)Nc3ccc4c(c3)OCCO4)cc2)n1
  -0.1	·	-1.7	-11	-2%	-0.1	-1
> O=C1OCCN1c1c(-c2ccccc2)c(N2CCOCC2)nc2ccccc12
  -1.3	-4	-1.3	-1	·	0.6	2
> Cc1nn(CCCC(=O)NCCc2ccccc2)c(=O)c2nn(-c3ccccc3)c(C)c12
  -0.2	28	-1.2	-2	·	0.0	-2
> CC1=NN(c2ccccc2)C(=O)/C1=C\N1CC(C)OC(C)C1 (centres undefined)
  1.3	-22	0.7	-26	-1%	0.1	6
> Cc1ccc(F)cc1NC(=O)CSc1ncccn1
  4.0	6	-4.7	-9	·	2.3	5
> COc1ccc(C(=O)N2CCN=C2c2ccccc2)cc1OC
  -3.0	-2	-0.3	-3	3%	-2.8	0
> CCc1cccc(NC(=O)CCC(=O)O)c1
  0.9	-16	1.4	0	-2%	1.0	5
> Cc1ccccc1OCC(=O)OCC(=O)NCCNC(=O)COC(=O)COc1ccccc1C
  -1.2	5	-1.1	3	10%	-4.5	0
> CCN(CC)C(=O)CSc1nc(C)cc(C)c1C#N
  -1.0	-5	-0.4	0	-4%	2.5	6
> CCc1cc2c(N3CCCCC3)ncnc2s1
  -0.9	6	2.7	9	76%	-1.6	-10
> O=C(N/N=C/c1ccccn1)c1cccc(S(=O)(=O)Nc2ccccc2Cl)c1
  4.1	-34	-2.1	0	-2%	-0.8	2
> CCOc1ccc(S(=O)(=O)N(CC(=O)N/N=C/c2cccs2)c2ccc(C)cc2)cc1
  5.8	4	6.0	-8	-2%	-7.5	-17
> CCCCn1c(SCc2c(C)noc2C)nc2cc(S(N)(=O)=O)ccc21
  -0.1	-5	-1.8	·	5%&-5%	0.0	1
> O=C(O)c1cn(-c2ccc(F)cc2)c2cc(Cl)c(F)cc2c1=O
  -3.3	1	3.6	-20	-1%	0.7	6
> CC1CC(C)CN(S(=O)(=O)N2CCCC(C(=O)NCCCN3CCCCC3C)C2)C1 (centres undefined)
  1.6	2	1.9	0	0%	-7.6	-6
> COc1ccc(CC(=O)NNC(=O)CSc2ccc(C)cc2)cc1
  -0.3	-7	1.6	-4	-7%	0.2	-4
> Cc1cc(C(=O)NCc2ccco2)c2cc(F)ccc2n1
  ·	-16	-1.4	5	13%	5.8	-9
> CC(C)c1nc(SCC(=O)Nc2ccc3c(c2)OCCO3)n[nH]1
  20*	18	0.2	7	7%	-2.6	1
> Cc1cc(-c2ccc(C)c(S(=O)(=O)NCCc3ccco3)c2)on1
  0.1	5	3.8	1	·	0.6	-8
> CC(=O)NC1(c2nnnn2CCOC(=O)Nc2ccc(Cl)cc2)CCCCC1
  ·	-1	-0.1	·	7%	-4.6	1
> O=C(NCc1cccs1)[C@@H]1CSC2c3ccccc3C(=O)N21 (some centres undefined)
  5.6	5	0.2	-9	5%	-1.3	3
> CCOC(=O)N1CCN(C(=O)c2cnn(-c3ccccc3)c2NC(=O)c2ccccc2F)CC1
  -2.7	0	1.1	-5	70%&2%	-0.8	2

Part of the list above in a different format:
molecule: Cc1ccc(F)cc1NC(=O)CSc1ncccn1
  RanGTP-Impb inh: 4.0; Calb FLC: 6; HNF4A DNA FP: -4.7; ALR inh: -9; Vif A3G: ·; LANA-H2A inh: 2.3; Beta2AR agonist: 5

molecule: Cc1cc(C)n(-c2ccc(C(=O)Nc3ccc4c(c3)OCCO4)cc2)n1
  RanGTP-Impb inh: -0.1; Calb FLC: ·; HNF4A DNA FP: -1.7; ALR inh: -11; Vif A3G: -2%; LANA-H2A inh: -0.1; Beta2AR agonist: -1

Next part.
Order of results: RanGTP-Impb inh	Calb FLC	HNF4A DNA FP	ALR inh	Vif A3G	LANA-H2A inh	Beta2AR agonist
> O=C(Nc1cccnc1)C1CC(c2ccccc2O)=NO1 (centres undefined)
  2.6	-17	-3.7	14	-1%	-0.9	-7
> Cc1sc2ncnc(N3CCCCC3C)c2c1C (centres undefined)
  0.6	4	-0.9	·	0%	-0.8	-6
> O=C(O)CC(=O)Nc1ccccc1C(=O)O
  ?	-4	1.1	1	-1%	2.4	-1
> Cc1ccc(C(C)C)c(OCC(=O)N/N=C2\CC(=O)CC(C)(C)C2)c1
  4.1	7	3.9	16	4%	4.6	5
> CC(C)C(OC(=O)c1cccs1)C(=O)NCCc1ccccc1 (centres undefined)
  1.7	-4	0.0	0	?	3.8	-3
> CSc1ccc(CN2CCN(CC=C(C)C)C(CCO)C2)cc1 (centres undefined)
  ?	-19	-4.2	·	·	-2.7	-5
> Cc1ccc(C(=O)OC(C)C(=O)Nc2ccc3c(c2)OCO3)c(O)c1 (centres undefined)
  ·	·	-1.4	·	·	-0.4	-2
> S=C(NC1CC1)N1CCc2ccccc2C1
  -0.8	3	-0.1	0	-8%	2.8	29
> CSc1nsc(SCC(=O)Nc2ccc(Cl)c(C(=O)O)c2)n1
  -1.6	0	-2.9	6	·	-3.8	7
> COc1ccc(N(C(=O)c2cccc(OC)c2OC)C2C=CS(=O)(=O)C2)c(OC)c1 (centres undefined)
  0.2	-2	-1.2	-5	-1%	1.8	2
> COc1ccc(-n2c(Cn3nnc4ccccc43)nnc2SCC(=O)O)cc1
  -2.0	-9	0.4	-10	-5%	-1.8	2
> CCc1nnc(NC(=O)CSc2nc3c(cc2C#N)CCCC3)s1
  5.3	7	-3.4	-12	0%	-1.9	-5
> CC(Sc1nnc(C2CC2)n1-c1ccccc1)C(=O)N1CCCC1 (centres undefined)
  ·	·	-0.1	·	-6%	·	-4
> CC(C)CC(=O)Nc1ccc(S(=O)(=O)N2CCCC2)cc1
  2.3	-1	1.2	·	·	4.2	-6
> Cc1[nH]nc(SCC(=O)NCc2ccc(F)cc2)c1[N+](=O)[O-]
  1.4	4	0.1	6	·	2.6	3
> CCOc1cc(NC(=S)NCCCN2CCOCC2)c(OCC)cc1NC(=O)c1cccc(C)c1
  -1.5	?	1.3	-20	14%	-5.8	4
> Nc1sc(-c2ccccc2)cc1-c1n[nH]c(=S)n1C1CCCCC1
  -0.3	0	6.6	98*	-5%	2.6	-6
> O=C(NCc1ccc2c(c1)OCO2)c1n[nH]c(=O)c2ccccc12
  0.3	-17	-1.9	6	3%	-1.0	-8
> Cc1nn(-c2ccc(Cl)c(Cl)c2)c(C)c1C(=O)O
  7.6	26	-0.7	8	-4%	3.4	12
> CCCc1nc(S(=O)(=O)Cc2ccc(Cl)cc2Cl)n[nH]1
  -0.9	-3	-3.4	1	9%	-2.1	-1
> CN(CC(=O)NC(c1ccccc1)c1ccccc1)Cc1nc2ccccc2c(=O)[nH]1
  1.3	3	0.6	-4	7%	1.4	8
> Oc1c(Br)cc(C=Nc2ccc3nc(-c4ccccc4)[nH]c3c2)c(O)c1Br
  3.7	1	·	23	4%	17	-10
> CCOC(=O)C1C(=O)CC(C)(O)C(C(=O)OCC)C1c1ccccc1OC (centres undefined)
  1.0	-1	0.2	1	7%	-1.1	0
> CCn1c(=S)sc2c(=O)n(CC(=O)Nc3cccc(OC)c3)c(C)nc21
  -1.3	-7	-1.3	-3	·	11	-1
> O=C1OC(N2C(=O)CC[C@H]2C(=O)Nc2ccc(Br)cc2F)c2ccccc21 (some centres undefined)
  4.0	-2	-3.9	-12	·	1.3	1
> CC1=CC(=O)Nc2ccccc2S1
  ·	·	9.6	·	2%	·	2
> CC(NC(=O)COC(=O)/C=C/c1cccc(C(F)(F)F)c1)c1ccccc1 (centres undefined)
  -2.2	-9	0.7	4	-4%	5.2	-1
> CC(C)c1ccc(/C=C2\C(=N)N3N=C(CC(=O)N4CCCCC4)SC3=NC2=O)cc1
  1.6	-7	-6.3	96*	·	11	2
> COc1ccc(Br)cc1CN(C)C(=O)c1ccncc1
  5.3	3	3.1	-7	·	-1.4	-6
> CCc1cc2c(=O)oc(-c3ccccc3F)nc2s1
  ?	21	0.0	·	·	-5.1	0
> COc1ccc(C2c3[nH]c4ccccc4c3CCN2C(=O)c2cn3ccccc3n2)c(F)c1 (centres undefined)
  5.5	27	-1.2	-1	·	1.5	-18
> CN1CCN(S(=O)(=O)c2csc(C(N)=O)c2)CC1
  ?	11	2.2	-4	2%	1.6	6
> CSc1ccccc1NC(=O)c1cccs1
  -2.8	-5	4.2	3	-5%	-2.7	-2
> COc1ccccc1CCC(=O)NNC(=O)c1ccccc1
  1.6	3	2.1	-4	0%	-3.3	4
> O=C(Nc1ccc(S(=O)(=O)N2C[C@@H]3C[C@@H](C2)c2cccc(=O)n2C3)cc1)c1ccc(F)cc1
  ·	·	-0.4	-6	·	-6.3	-2
> COc1ccc(-c2csc(NC(=O)C3COc4ccccc4O3)n2)cc1OC (centres undefined)
  1.2	-5	-3.8	-11	·	-2.0	-6
> COc1cccc(N2CCN(CC(=O)Nc3ccccc3C(=O)NCCc3ccccc3)CC2)c1
  ·	·	-1.8	11	4%	-0.5	18
> CC1CC1C(=O)OCC(=O)NNC(=O)COc1ccc(Br)cc1 (centres undefined)
  0.2	-8	3.0	-2	-1%	11	-12

Whole records as entered above. Order of values: RanGTP-Impb inh	Calb FLC	HNF4A DNA FP	ALR inh	Vif A3G	LANA-H2A inh	Beta2AR agonist
COc1ccccc1CCC(=O)NNC(=O)c1ccccc1 as listed: 1.6	3	2.1	-4	0%	-3.3	4
CSc1ccccc1NC(=O)c1cccs1 as listed: -2.8	-5	4.2	3	-5%	-2.7	-2
